Compound activity as filed in PubChem BioAssay.
HCMV NEC inh: inhibitors of HCMV UL50-UL53 nuclear egress complex interaction | HTRF UL50-UL53 interaction, normalized percent inhibition | inhibition, % (concentration not given with the values) | 190,000 tested, 0.15% active | AID 1918969;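 active means both replicates at 50% or more, plus weaker picks with an unusually low signal ratio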;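 further: stock transfer was 100 nL into about 20 µL; 0% = negative control wells and 100% = wells with untagged competitor protein; inactives centre near -12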
Sa growth inh: blocks Staphylococcus aureus growth; S. aureus RN4220 growth, OD600, 20 h, 42 °C; stronger effect = lower value; relative growth, % (concentration not given with the values); 170,000 tested, 0.53% active; AID 720641;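 active means growth at 42 °C up to 50% and 20 or more points under that at 30 °C, or under 10% at both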;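 further: 300 nL library stock went into each well; scaled to the means of positive and negative controls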
GIV Gai3 FP: inhibitors of GIV GBA-motif binding to rat Galpha-i3; P08753; Galpha-i3/FITC-GIV peptide fluorescence polarization, 90 min; stronger effect = lower value; scaled: aluminum fluoride 0%, vehicle 100%; percent of control (FP), % (no concentration beside the values); 210,000 tested, 0.42% active;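 active means replicate mean at 85% of control or lower, very high polarization wells dropped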;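 further: wells of about 15 µL received 100 nL stock; the first replicate is given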
Target sequence (P08753 whole entry, looked up): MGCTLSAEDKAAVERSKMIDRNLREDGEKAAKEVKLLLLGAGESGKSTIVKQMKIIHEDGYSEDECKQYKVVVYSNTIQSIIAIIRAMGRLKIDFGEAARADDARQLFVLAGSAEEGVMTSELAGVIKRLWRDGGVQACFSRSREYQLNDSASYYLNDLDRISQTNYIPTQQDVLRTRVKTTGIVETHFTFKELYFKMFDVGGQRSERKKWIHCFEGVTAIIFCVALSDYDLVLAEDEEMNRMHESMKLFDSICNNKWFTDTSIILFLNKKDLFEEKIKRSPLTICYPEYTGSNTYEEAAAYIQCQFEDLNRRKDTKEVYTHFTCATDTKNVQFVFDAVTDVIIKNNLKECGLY
Sa growth inh second temp: further read-out of Sa growth inh, marked with its call; relative growth, %; measured here: growth at 30 °C;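 optical density after 20 h as mean of two plates; 100% = untreated growth and lower means inhibition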
Active calls of the source: *; nt = not tested or not shown; & = joins results of further samples.

canonical_smiles | HCMV NEC inh | Sa growth inh | Sa growth inh second temp | GIV Gai3 FP
Cc1cccc(NC(=O)COc2cccc(-c3nc(-c4ccccc4)no3)c2)c1 | -10 | nt | nt | 107
O=C(NCC(c1ccco1)S(=O)(=O)c1cccs1)c1ccccc1 (stereo unspecified) | nt | 107 | 89 | 92
Nc1ccc(SC(C(F)(F)F)(C(F)(F)F)C(F)(F)F)cc1 | -13 | 80 | 86 | nt
CCOC(=O)/C(C#N)=C1/C=CC(Cl)=NN1 | -12 | 104 | 62 | 107
CCc1nn2c(=O)cc(CN(CC)c3cccc(C)c3)nc2s1 | -19 | nt | nt | 103
O=C(NC1CCN(Cc2ccccc2)CC1)c1ccc(-n2cccn2)cc1 | -21 | 85 | 87 | 104
Cc1nc2ccccc2n1CC(=O)OCC(=O)C(C)(C)C | 4 | 108 | 91 | nt
CC(C)c1ccc(NC(=O)[C@H]2O[C@@H]3OC(C)(C)O[C@@H]3[C@H]3OC(C)(C)O[C@H]32)cc1 | -5 | 115 | 88 | 102
CCOC(=O)c1c(NC(=O)CSc2nnc3cc(C)c4cccc(OC)c4n23)sc(C)c1C | -3 | nt | nt | 100
COc1cccc(N=Cc2ccccc2O)c1 | 4 | 103 | 101 | 103
COc1ccccc1Cn1c(=S)[nH]c2cc(C(=O)NCCN(C)C)ccc2c1=O | -8 | 103 | 92 | 102
COc1cc2c(cc1OC)C(C(=O)Nc1ccccn1)C(c1cccnc1)N(C)C2=O (stereo unspecified) | -31 | 88 | 92 | 105
Brc1ccc2ncnc(NCCN3CCOCC3)c2c1 | -32 | nt | nt | 101
CCOC(=O)N1CCC(NCc2c(C(=O)O)c(C)n(Cc3cccc(C)c3)c2C)CC1 | 12 | 102 | 105 | 107
CN1CCN(C(=O)c2cn(-c3ccccc3)nc2-c2cccnc2)CC1 | -21 | 115 | 89 | nt
Cc1cc2ncn(CN3CCN(c4ccc(C(F)(F)F)cn4)CC3)c2cc1C | -32 | 111 | 91 | nt
COc1ccc(CCNC2CC(=O)N(CCc3ccc(OC)c(OC)c3)C2=O)cc1 (stereo unspecified) | -4 | 100 | 100 | 98
CC(C)Cc1nc2n[nH]c(N)c2c2c1COC(C)(C)C2 | -8 | nt | nt | 103
NC(=O)c1ccc(CN2CCOCC2)cc1 | 4 | 108 | 92 | nt
Cc1cccc(N2C(=O)CSC23C(=O)N(Cc2cccc(F)c2)c2ccccc23)c1 (stereo unspecified) | nt | 100 | 90 | 100
CC(=O)Nc1nnc(-c2c(-c3c(Cl)cccc3Cl)noc2C)o1 | 0 | 112 | 102 | 109
O=C(CCSCc1ccccc1Cl)NC1CCCCC1 | nt | 92 | 77 | 105
COc1ccc(NC(C)=O)c(NC(=O)c2ccc(Cl)cc2Cl)c1 | nt | 101 | 84 | 101
CCOC(=O)C1=C(C)NC(=O)c2c(ccc(OC)c2OC)C1O (stereo unspecified) | 1 | 104 | 92 | 96
COc1ccc(S(=O)(=O)NCC(c2ccco2)N2CCOCC2)cc1 (stereo unspecified) | nt | 87 | 95 | 98
Cc1ccccc1NC(=O)CSc1nc2ccc(NC(=O)c3ccccc3)cc2s1 | -5 | 114 | 75 | 103
CCOC(=O)c1c(C)c(S(=O)(=O)NC2CCC(C)CC2)c(C)n1C (stereo unspecified) | -4 | nt | nt | 108
COc1ccc2c(C=Nc3ccccc3)c(O)n(C)c(=O)c2c1 | -11 | 98 | 78 | nt
NC(=O)c1sccc1NC(=O)C(F)(F)F | 14 | 106 | 104 | 107
COc1ccc(Nc2cc(C)c3ccccc3n2)cc1 | -15 | 89 | 77 | 103

Compounds listed so far that have a thiophene ring, fused or not:
canonical_smiles | HCMV NEC inh | Sa growth inh | Sa growth inh second temp | GIV Gai3 FP
O=C(NCC(c1ccco1)S(=O)(=O)c1cccs1)c1ccccc1 (stereo unspecified) | nt | 107 | 89 | 92
CCOC(=O)c1c(NC(=O)CSc2nnc3cc(C)c4cccc(OC)c4n23)sc(C)c1C | -3 | nt | nt | 100
NC(=O)c1sccc1NC(=O)C(F)(F)F | 14 | 106 | 104 | 107

Three entries from above, sorted by length of the SMILES, high to low:
canonical_smiles | HCMV NEC inh | Sa growth inh | Sa growth inh second temp | GIV Gai3 FP
Cc1cc2ncn(CN3CCN(c4ccc(C(F)(F)F)cn4)CC3)c2cc1C | -32 | 111 | 91 | nt
CCOC(=O)C1=C(C)NC(=O)c2c(ccc(OC)c2OC)C1O (stereo unspecified) | 1 | 104 | 92 | 96
CC(C)Cc1nc2n[nH]c(N)c2c2c1COC(C)(C)C2 | -8 | nt | nt | 103

The list goes on:
canonical_smiles | HCMV NEC inh | Sa growth inh | Sa growth inh second temp | GIV Gai3 FP
Cn1cnc2c(=O)oc3ccc(S(=O)(=O)NCc4ccccc4)cc3c21 | -4 | nt | nt | 100
c1cnc(SCc2csc(-c3ccc4c(c3)OCO4)n2)nc1 | -33 | 109 | 89 | 112
CCCCNS(=O)(=O)c1ccc(N2C(=O)CCS2(=O)=O)cc1 | -40 | nt | nt | 103
Cc1cc(C)c(/C=C/c2onc(C)c2S(=O)(=O)N2CCC(C(=O)N(C)Cc3ccccc3)CC2)c(C)c1 | nt | 93 | 90 | 103
Cc1ccc(-c2nn(-c3ccccc3)cc2C2CC(c3cccs3)=NN2C(=O)CCCC(=O)O)cc1 (stereo unspecified) | -36 | nt | nt | 105
COc1ccc(C(=O)N/N=C2/SCC(=O)N2C)c(OC)c1 | 5 | 99 | 118 | 104
CCOC(=O)c1c(CN2CCN(C)CC2)n(-c2ccccc2)c2ccc(O)cc12 | 0&16 | 97 | 88 | 97&99
CCOC(=O)c1ccc(NC(=O)CCCN2C(=O)/C(=C/c3ccc(OC)cc3)SC2=S)cc1 | -24 | nt | nt | 107
CCc1cc2c(N3CCN(CC)CC3)nc(C)nc2s1 | nt | 96 | 76 | 103
C1CCC(Nc2nc(N3CCOCC3)nc(N3CCOCC3)n2)CC1 | -5 | 113 | 89 | 103
COc1ccc(C2=NN(C(=O)CCCC(=O)O)C(c3ccc(F)cc3)C2)cc1OC (stereo unspecified) | -9 | nt | nt | 98
COc1ccc(-c2nn(CN3CCOCC3)c(=S)n2C2CCCCC2)cc1 | -37 | 74 | 77 | nt
CCOC(=O)Cn1c(N2CCCCC2)nc2c1c(=O)[nH]c(=O)n2C | -9 | nt | nt | 103
O=C(CSc1ncc(CO)n1CC(=O)NC1CCCC1)Nc1ccc(Br)cc1 | -18 | nt | nt | 104
Cc1onc(-c2ccccc2)c1C(=O)O | 8&-15 | 108 | 91 | 102&104
Cc1ccc(O)c(CCc2ccc(O)cc2)n1 | -6 | 115 | 94 | nt
CN(C)CCOC(=O)NC1CC(=O)N(c2ccc(F)cc2)C1 (stereo unspecified) | -13 | 102 | 90 | 105
O=C(O)c1ccc2ccccc2c1Br | 22 | 119 | 104 | 101
CCc1ccccc1NC(=O)Nc1ccc2c(c1)oc(=O)n2C | 3 | nt | nt | 103
COc1ccc(-c2c(C#N)c(N)nc(OC)c2C#N)cc1 | -2 | 108 | 106 | 94
Cc1ccc(S(=O)(=O)N2C(=O)CCC2C(=O)N(Cc2nc(-c3ccccc3)no2)C(C)C)cc1 (stereo unspecified) | -14&-11 | 95 | 85 | 100&99
OC1CCCN(C2CCN(CCc3ccccc3)CC2)C1 (stereo unspecified) | -4 | 95 | 75 | 109
CCC1CN(C(=O)N2CCC(C(=O)NCc3ccco3)CC2)c2cc(C)ccc2O1 (stereo unspecified) | -7 | 127 | 92 | 100
CCCC(CC(=O)N1CCN(c2ccccc2Cl)CC1)n1ccnc1 (stereo unspecified) | -9 | 84 | 79 | nt
O=C1Nc2ccccc2S/C1=C/c1ccc(C(=O)N2CCC3(CC2)OCCO3)cc1 | -105 | 100 | 69 | 98
O=C(NCc1ccc(Cl)cc1)c1ccc2c(c1)[nH]c(=S)n1c3ccccc3nc21 | nt | 116 | 66 | 100
CC1CS(=O)(=O)N(c2ccc(S(=O)(=O)N(C)C3CCS(=O)(=O)C3)cc2)C1=O (stereo unspecified) | -3 | nt | nt | 108
Cn1nc(C(C)(C)C)cc1N | -44 | 96 | 85 | 104
COc1ccc(Cl)cc1NC(=O)NCc1noc2ccccc12 | nt | 121 | 86 | 100
Cc1nc2sccn2c(=O)c1S(=O)(=O)Nc1ccc(N2CCN(C)CC2)cc1 | -9 | 110 | 86 | 110
CCOC(=O)c1c(C)[nH]c(CCC(=O)NCCCN2CCN(c3cccc(Cl)c3)CC2)c1C | nt | 95 | 71 | 104
CN1CCC(N(C)C(=O)C23CC4CC(CC(C4)C2)C3)CC1 | -37 | 116 | 82 | nt
CCN1CCc2nc(SCC(=O)Nc3ccc(OC)cc3)c(C#N)cc2C1 | -17 | 98 | 86 | 109
CC(=O)Nc1ccccc1C(=NC1CCCCC1)C(=O)NC1CCCCC1 | nt | 91 | 89 | 104
COc1ccc(-c2noc(N(c3nc(-c4ccc(OC)c(OC)c4)no3)c3ccccc3OC)n2)cc1OC | 18 | 105 | 99 | 107
c1ccc(-c2nnc(C3CC3)nc2-c2ccccc2)cc1 | -30 | 78 | 74 | nt
C/C(N)=C(/C#N)C(=O)CSc1cc(C)c(C#N)c2nc3ccccc3n12 | -32 | 64 | 82 | nt
Cc1nnsc1C(=O)Nc1ccc2c(c1)OCCO2 | -7 | 104 | 95 | 105
O=C(COc1coc(CN2CCc3ccccc32)cc1=O)NC1CCCC1 | -9 | 97 | 90 | 102
Cc1c(Cl)cccc1-c1ccc(C(=O)Nc2ccc(F)cc2)o1 | -14 | 91 | 94 | 110
CC(C)(C)NC(=O)N1CCC(C(N)=O)CC1 | 1 | 102 | 101 | 107
O=C1CCCC/C1=C/NCc1ccccc1 | -18 | 129 | 102 | 110
Cc1ccccc1CN1CCN(CC(=O)NCCc2ccc(Cl)cc2)C1=O | -17 | 94 | 85 | 98
N#C/C(=C\c1cc2ccccc2o1)S(=O)(=O)c1ccccn1 | 1 | 100 | 110 | 98
CCCCn1nnc2sc3c(c2c1=O)CCCC3 | -112 | 95 | 84 | 105
FC(F)(F)C1NCCc2c1[nH]c1ccccc21 (stereo unspecified) | nt | 101 | 84 | 106
CC1CCN(C(=O)/C=C/c2ccc3c(c2)OCO3)CC1 | nt | 90 | 78 | 103
CCOC(=O)c1cc(-c2csc(CS(=O)(=O)Cc3cccc(C(F)(F)F)c3)n2)on1 | -24 | 87 | 82 | 104
CC(C)c1ccc(NC(=O)NC(=O)c2ncon2)cc1 | -11 | 95 | 91 | 104
c1ccc(CSc2nnc(C3CCNCC3)o2)cc1 | -23 | 107 | 89 | 102

Random excerpt: 2 records from the list, in no set order.
canonical_smiles | HCMV NEC inh | Sa growth inh | Sa growth inh second temp | GIV Gai3 FP
c1ccc(CSc2nnc(C3CCNCC3)o2)cc1 | -23 | 107 | 89 | 102
O=C(CSc1ncc(CO)n1CC(=O)NC1CCCC1)Nc1ccc(Br)cc1 | -18 | nt | nt | 104
